Mtb H37Rv – Confirmatory growth inhibition assay against Mycobacterium tuberculosis H37Rv, potency (AID 1949) | 1.6% of 100,000 active | most inactive calls were filed without a number and no value below 0 was filed | inhibition, % at 10 µg/mL; hits with a dose series show IC50 in µg/mL;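 active = confirmed in a dose series; inconclusive = about 50% or more but not retested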;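 also: bacteria grown 7 days with compound before Alamar blue readout; 0% = untreated bacteria and 100% = reference antibiotic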
* hit, by the source's call; i = inactive; ? = inconclusive. A portion of the library; the hit share may differ from the screen's.

The opening seven compounds, ahead of the listing:
smiles | Mtb H37Rv
Cc1cc(Cl)ccc1OC(C)C(=O)Nc1cccc(Cl)c1 (centres undefined) | i
Cn1c(SCC(=O)O)nc2ccccc21 | i
CC(C)Cn1c(SCC(=O)Nc2ccccc2F)nnc1-c1ccccc1 | i
CC(C)(C)C(=O)CSc1nc2c(c(-c3ccc(Cl)cc3)c1C#N)CCC2 | i
COc1cc([N+](=O)[O-])ccc1NC(=O)c1sc2ccccc2c1Cl | i
CC(C)(C)NC(=O)c1ccc2c3c(cccc13)CC2 | ?
O=C(Nc1ccc(S(=O)(=O)NCC2CCCO2)cc1)c1ccccc1 (centres undefined) | i

All compounds of this part, from the start:
smiles | Mtb H37Rv
Cc1cc(Cl)ccc1OC(C)C(=O)Nc1cccc(Cl)c1 (centres undefined) | i
Cn1c(SCC(=O)O)nc2ccccc21 | i
CC(C)Cn1c(SCC(=O)Nc2ccccc2F)nnc1-c1ccccc1 | i
CC(C)(C)C(=O)CSc1nc2c(c(-c3ccc(Cl)cc3)c1C#N)CCC2 | i
COc1cc([N+](=O)[O-])ccc1NC(=O)c1sc2ccccc2c1Cl | i
CC(C)(C)NC(=O)c1ccc2c3c(cccc13)CC2 | ?
O=C(Nc1ccc(S(=O)(=O)NCC2CCCO2)cc1)c1ccccc1 (centres undefined) | i
O=C(Nc1nnc(SCc2cccc3ccccc23)s1)c1ccccc1Cl | i
COC(=O)C1=CN(C2CCCCC2)C=C(C(=O)OC)C1c1ccc(C(F)(F)F)cc1 | 3%
COC(=O)c1cc(Cc2ccccc2)sc1NC(=S)Nc1cccc(NC(C)=O)c1 | i
COc1ccc(NC(=O)NNC(=S)Nc2ccc(Cl)cc2)c(OC)c1 | i
CCCCNC(=O)c1ccc(N(Cc2ccccc2C)S(C)(=O)=O)cc1 | i
O=C(CSc1nc2ccccc2o1)NC1CCCC1 | i
CN(C)c1ccc(-c2nc3cc(NC(=O)c4ccc(-c5ccc(Cl)cc5)o4)ccc3o2)cc1 | 12%
Cc1ccc(SCC(=O)NC2CCS(=O)(=O)C2)cc1 (centres undefined) | i
Brc1cccc(-c2n[nH]c(-c3ccccc3)n2)c1 | i
CCCCC(=O)Nc1cccc(NC(=S)NC(=O)c2cc(C)cc(C)c2)c1 | i
COc1ccccc1CC(=O)Nc1ccc(CC#N)cc1 | i
COc1cccc(CNC(=S)Nc2ccccc2OC)c1 | i
CCN(CC)S(=O)(=O)c1ccc2nc(NC(=O)c3cccc(Cl)c3)sc2c1 | i
COc1cccc(-c2cc3c(=O)n(-c4ccccc4)c(=S)[nH]c3s2)c1 | i
Fc1ccccc1CSc1nnc(-c2ccncc2)n1Cc1ccco1 | i
CN(c1ccccc1C(=O)Nc1cc(Cl)ccc1Cl)S(=O)(=O)c1ccccc1 | i
COc1ccccc1C(=O)NC(=S)Nc1ccc(-c2nc3ccc(C)cc3o2)cc1 | i
CCOc1c(Cl)cc(C(=O)Nc2ccc(C(C)=O)cc2)cc1Cl | 0%
CS(=O)(=O)N(CC(=O)Nc1ccc2c(c1)OCCO2)C1CCCCC1 | i
COCCCNC(=S)NNS(=O)(=O)c1ccc(Br)cc1 | i
Cc1ccc(C(=O)O)cc1S(=O)(=O)N1CCCCCC1 | i
O=C(Nc1ccccc1)c1cc(S(=O)(=O)N2CCCc3ccccc32)cs1 | i
Cn1c(=O)c2c(nc(NCC3CCCO3)n2Cc2cccc(Br)c2)n(C)c1=O (centres undefined) | i
COc1cccc(NC(=O)CC2NCCNC2=O)c1 (centres undefined) | i
O=C(Nc1cccc(NC(=O)c2ccco2)c1)c1ccccc1 | i
CC(C)CNS(=O)(=O)c1ccc(CCC(=O)Nc2cccc(Br)c2)cc1 | i
COc1cccc(N(CC(=O)Nc2cccc([N+](=O)[O-])c2)S(C)(=O)=O)c1 | i
CCc1cc(C(=O)OC)c(NC(=O)c2c(-c3ccccc3Cl)noc2C)s1 | 6%
CC(=O)c1ccc(NC(=S)N2CCN(c3ccccc3F)CC2)cc1 | i
COc1ccc(NC(=O)c2c(-c3ccccc3Cl)noc2C)cc1Cl | 0%
CCCC(=O)Nc1ccc(Cl)c(NC(=O)COc2ccc(C(C)C)cc2)c1 | i
O=C(C1CCCN(Cc2ccc3c(c2)OCO3)C1)N1CCCC1 (centres undefined) | i
CC(=O)Nc1ccc2c(c1)N(C(=O)CN(C)C)c1ccccc1CC2 | i
C=CCn1c(SCC(=O)Nc2ccc3c(c2)CCN3C(C)=O)nc2sc3c(c2c1=O)CCCC3 | i
COC(=O)C1=CN(c2cccc(C(F)(F)F)c2)C=C(C(=O)OC)C1c1ccsc1 | 3%
COc1ccc(C(=O)Nc2cc(C(C)C)c(OC)cc2C)cc1 | 21%
COc1ccc(-c2cccc(C(=O)O)c2)cc1 | i
O=C(Nc1nnc(-c2ccccc2Cl)s1)c1cccc(Br)c1 | i
Cc1c(Cl)cccc1NC(=S)NCCc1ccc(F)cc1 | 2%
O=C(CSc1nnc(-c2ccccc2)o1)Nc1ccc(Br)cc1F | i
COc1ccccc1NC(=O)CN(c1ccccc1C)S(=O)(=O)c1ccc(Cl)cc1 | 4%
CCNC(=S)N1CCN(c2ccccc2F)CC1 | 3%
Cc1cccc(-c2nnc(SCC(=O)Nc3cc([N+](=O)[O-])ccc3C)n2-c2ccccc2)c1 | i
COc1ccc(Cl)cc1C(=O)Nc1ccc(-c2nc3ccc(C)cc3o2)cc1 | i
COC(=O)c1c(C)n(-c2ccc(OC)cc2)c2c1cc(O)c1ccccc12 | i
CCOc1ccc(C(=O)CCC(=O)Nc2ccccc2C)cc1 | i
CCOC(=O)Cc1csc(NC(=O)CSc2nc3sc(C)c(C)c3c(=O)n2C)n1 | i
CCOC(=O)c1sc(NC(=S)N2CC(C)OC(C)C2)c(C(=O)OCC)c1C (centres undefined) | i
CN1CCN(CC(=O)Nc2ccc(Cl)cc2Cl)CC1 | i

Further results follow.
smiles | Mtb H37Rv
COC(=O)c1ccc(C2c3c(oc4cc(C)c(C)cc4c3=O)C(=O)N2CCc2ccccc2)cc1 (centres undefined) | i
CC(C)(C)C(=O)NC(=S)Nc1ccccc1 | i
CCOc1ccc(C(=O)c2oc3ccccc3c2NC(=O)C2COc3ccccc3O2)cc1 (centres undefined) | i
O=C(CN(C1CCCCC1)S(=O)(=O)c1ccc(F)cc1)Nc1ccc(Cl)cc1Cl | i
CC(C)c1ccc(C(=O)NCCCn2ccnc2)cc1 | i
CN1C(C)(C)CC(N)CC1(C)C | i
COc1ccc(Nc2nc(N)nc(CSc3nnc(C)s3)n2)cc1 | 6%
CCCCC(=O)Nc1ccc(C(=O)NCCc2ccc(S(N)(=O)=O)cc2)cc1 | i
Cc1cc(OCC(=O)Nc2sc3c(c2C(N)=O)CCCC3)cc(C)c1Cl | i
Cc1cc(OCC(=O)Nc2ccccc2F)cc(C)c1Br | i
O=C(CSc1nc2ccccc2c(=O)n1-c1ccccc1)N1CCOCC1 | i
O=C(Nc1ccc(Cl)cc1F)c1ccccc1Br | 4%
Cc1cc(C)n2c(SCC(=O)Nc3c(Cl)cccc3Cl)nnc2n1 | i
Cc1cc(C)c(OCCN(C)C)c(Cl)c1 | i
Cc1ccc(Nc2ncnc3ccccc23)cc1Cl | 21%
CCSc1nc2ccc(I)cc2c(=O)n1-c1ccccc1 | i
Cc1cc(C)c(S(=O)(=O)N2CCOCC2)cc1N(C)S(=O)(=O)c1ccc(Cl)cc1 | i
COc1ccc(CCNC(=O)c2ccccc2OCC(=O)Nc2c(C)cc(C)cc2C)cc1OC | 5%
CCC(C)NC(=O)C(=O)Nc1ccc(C)c(Cl)c1 (centres undefined) | i
CCOc1cc(C2C(C(=O)N3CCCCC3)=C(C)NC3=C2C(=O)CCC3)ccc1OC(C)=O (centres undefined) | i
CCCC(=O)Nc1ccc(C(=O)Nc2cc(C(F)(F)F)ccc2Cl)cc1 | 12%
Cc1ccc(C(=O)Nc2cccc(I)c2)c(C)c1 | i
O=S(=O)(NC(=NC1CCCCC1)c1ccccc1)c1cccs1 | 1%
CC(C)Oc1ccc(C(=O)Nc2ccccc2C(N)=O)cc1 | i
CCN1CCN(C(=O)c2cc(-c3cccc(C)c3)nc3ccccc23)CC1 | 3%
COc1ccc(S(=O)(=O)Nc2cccc(Cl)c2C)c(C)c1C | 5%
O=c1oc2ccc(Cl)cc2n1Cc1ccccc1Br | i
O=C(c1cccc([N+](=O)[O-])c1)c1cc2ccccc2o1 | i
CC(=O)Oc1ccc2c(=O)c(-c3nc4ccccc4s3)c(C)oc2c1C | i
CCNC(=O)c1c(NC(=O)C(C)Oc2ccccc2F)sc2c1CCCC2 (centres undefined) | i
O=C(CCC1COc2ccccc2O1)Nc1ncccc1O (centres undefined) | 1%
Cc1ccc(S(=O)(=O)N2CCC(C(=O)Nc3ccc(C(N)=O)cc3)CC2)cc1 | i
COc1ccccc1C(=O)Nc1ccc(Cl)cc1C(=O)c1ccccc1 | 16%
O=C(NCc1cccs1)c1ccc(Br)s1 | i
Cc1cccc(C)c1NC(=O)C(=O)NCCc1ccc(Cl)cc1 | i
COc1ccc(C2(CNC(C)=O)CCCC2)cc1OC | i
CCOC(=O)c1c(NC(=O)CSc2nnc3ccc4ccccc4n23)sc(C)c1C | i
CN1CCN(c2ccc(NC(=O)c3ccccc3F)cc2)CC1 | 3%
O=C(c1cc(-c2ccccc2)on1)N1CCN(Cc2ccc3c(c2)OCO3)CC1 | i
COCC(=O)Oc1ccc(C(=O)OC)cc1 | i
Cc1cc(OCCN2CCC(C)CC2)cc(C(C)C)c1 | i
Cc1ccc(C(=O)Nc2ccc(Cl)cc2F)cc1C | i
Cc1cc(OCC(=O)N2CCN(c3ccccc3F)CC2)ccc1Cl | i
O=C(C1=C(O)C(=O)N(Cc2ccco2)C1c1ccc(OCc2ccccc2)cc1)c1ccco1 (centres undefined) | i
COC(=O)C1=C(C)NC2=C(C(=O)CC(c3ccccc3OC)C2)C1c1cc(OC)c(OC)c(OC)c1 (centres undefined) | i
CC(=O)Nc1ccccc1NC(=O)CSc1ccc(C)cc1 | 5%
O=C(/C=C/c1ccccc1)NC(=S)Nc1ccc(Cl)cc1Cl | i
Cc1ccc(N(Cc2ccccc2F)S(C)(=O)=O)cc1C | i
CCc1c(C)nc(/N=C(\NC(=O)c2ccccc2)Nc2ccccc2OC)[nH]c1=O | i
COc1ccc(C(C)NC(=O)COc2ccccc2Cl)cc1 (centres undefined) | 6%
COC(=O)c1ccc(/C=C(\C#N)c2nc3ccccc3c(=O)[nH]2)cc1 | i
CCOc1ccccc1NC(=S)Nc1ccc(OC(F)F)c(Cl)c1 | i
O=C(NCc1ccccc1)c1ccc(NC(=O)c2ccccc2F)cc1 | i
O=C(CC(O)(C(F)(F)F)C(F)(F)F)Nc1ccc(Oc2ccccc2)cc1 | 7.5µg/mL*
COc1ccc(CN2CCN(C3CCC(C)CC3)CC2)cc1OC (centres undefined) | i
CC(C)C(=O)Nc1ccc(-c2cn3ccccc3n2)cc1 | i

(list continues)
smiles | Mtb H37Rv
O=C(COc1ccc2ccccc2c1Br)N1CCCC1 | 2%
CS(=O)(=O)N(CC(=O)O)c1ccc2c(c1)OCO2 | i
COc1ccc(C(=O)Nc2cccnc2)cc1S(=O)(=O)N1CCOCC1 | i
CCOc1ccccc1N1CCN(C(=O)c2ccc(Br)cc2)CC1 | i
Cc1ccccc1OCc1nnc(SCC(=O)Nc2ccccc2)n1C | i
CCCCNC(=O)c1ccc(CN2CCc3ccccc3C2)cc1 | i
COc1ccc(-n2c(SCC(N)=O)nc3sc(C)c(C)c3c2=O)cc1 | i
CCOc1ccc(C(=O)N2CCN(c3ccccn3)CC2)cc1OCC | i
COc1ccc(CCNC(=O)COc2ccc(Br)c(C)c2)cc1OC | i
Nc1nc(CN2CCc3ccccc3C2)nc(Nc2ccccc2)n1 | ?
Cc1nn(CC(O)COc2ccc3ccccc3c2)c(C)c1Br (centres undefined) | 1%
COc1ccc(/C(N)=N/OC(=O)COc2ccc(Cl)cc2)cc1OC | 0%
CC(C)NC(=O)c1cnn2c(C(F)F)cc(-c3ccccc3)nc12 | i
O=C(c1nc2ncccn2n1)N1CCN(Cc2ccccc2)CC1 | i
COCCSc1ccccc1C(=O)NC(C)CCc1ccccc1 (centres undefined) | i
COc1cc(Cl)ccc1S(=O)(=O)N1CCN(c2ccccc2Cl)CC1 | i
CC(C(=O)Nc1cccc([N+](=O)[O-])c1)N(c1ccc(Oc2ccccc2)cc1)S(C)(=O)=O (centres undefined) | i
CCCC(=O)N(c1nc(-c2ccc(OC)cc2)c(C)s1)c1cc(OC)ccc1OC | 10%
O=S(=O)(NC1CCCCCC1)c1ccc2ccccc2c1 | 4%
CC(=O)Nc1ccc(-c2nnc(SCc3ccc(F)cc3)n2C)cc1 | i
C=CCNC(=S)NS(=O)(=O)c1ccc(Br)cc1 | i
CC(NC(=O)C(=S)N1CCN(C)CC1)c1ccccc1 (centres undefined) | 0%
COc1cc(SC)ccc1C(=O)NCc1ccc(C)cc1 | i
CCOC(=O)c1ccc(NC(=S)NNC(=O)c2ccc(N(CC)CC)cc2)cc1 | i
Cc1cccc(N2CCN(c3ncnc4c3cnn4-c3ccccc3)CC2)n1 | 1%
CC(C)(Oc1ccc(Cl)cc1)C(=O)Nc1nnc(C(F)(F)F)s1 | i
O=S(=O)(Cc1ccccc1Cl)Nc1cccc(Cl)c1Cl | i
CCCOc1cccc(C(=O)NC(=S)Nc2ccc(I)cn2)c1 | i
CCOc1ccccc1OCC(=O)Nc1ccccc1[N+](=O)[O-] | i
Cc1nnc(SCCC(=O)Nc2ccc(F)cc2)s1 | 11%
COc1cc(Cl)c(S(=O)(=O)N2CCOCC2)cc1Cl | 4%
CSc1ccccc1NC(=O)c1ccc2c(c1)OCO2 | i

Bioassay records (PubChem)
